# Screening results deposited in PubChem by PCMD.
# Calb biofilm kill = mixtures killing C. albicans biofilm; C. albicans biofilm persisters + clotrimazole, fluorescence viability; primary screen in compound mixtures of four per well; actives 0.02% (n = 120,000); inhibition, % at 7.6 µM; AID 1242;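 active means inhibition above 30.3% in the primary screen of four-compound pools, then above 30% when the compound was retested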;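 further: compounds exposed to preformed 24 h biofilms for 48 h; the number belongs to the whole pool; some results filed as inactive read as strong as hits; inactives centre near 12; 0% = biofilm with clotrimazole alone and 100% = kill control; retested singly at about 60 µM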
#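 Assay system: C. albicans biofilms / Medium: RPMI/MOPS medium, pH 7.0 / Schedule: biofilm formation 24 h, compound exposure 48 h, 37 °C / Measured by: Alamar Blue fluorescence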
# Starred values were filed as active, the others as inactive. A portion of the library. The share of hits here may be higher or lower than overall.
# The first 3 compounds, ahead of the listing:
Structure	Calb biofilm kill
CC(C)(O)C#Cc1ccc(C(=O)NC(CCCNC(N)=O)C(=O)O)s1 (centres undefined)	15
Cc1cc(C)c2c(c1)cc(C)c1nnc(SCC(=O)Nc3ccccc3N3CCOCC3)n12	10
COc1ccc(C(=O)COc2ccc3ccc(=O)oc3c2)cc1	12

# The whole of this part, from the start:
Structure	Calb biofilm kill
CC(C)(O)C#Cc1ccc(C(=O)NC(CCCNC(N)=O)C(=O)O)s1 (centres undefined)	15
Cc1cc(C)c2c(c1)cc(C)c1nnc(SCC(=O)Nc3ccccc3N3CCOCC3)n12	10
COc1ccc(C(=O)COc2ccc3ccc(=O)oc3c2)cc1	12
CCC(=O)n1nc(-c2cccnc2)nc1NCc1ccc(F)cc1	20
CC1(C)COCN1C(=O)c1ccc(Cl)c(Cl)c1	6
C[C@@H](O)C1NC(=O)[C@H](CCCCN)NC(=O)c2cc([N+](=O)[O-])cc(F)c2NCCCC[C@@H](C(N)=O)NC1=O (some centres undefined)	12
O=C(CNC(=O)c1ccc(Cl)cc1Cl)OCc1nc2ccccc2s1	1
O=C(Cc1ccc([N+](=O)[O-])cc1)NCc1ccc2c(c1)OCO2	5
CC(NC(=O)c1cccs1)C(c1cccs1)N1CCN(c2ccccc2)CC1 (centres undefined)	13
CC(C)(C)c1ccc(CN2N=C(/C=C/c3ccccc3)CCC2=O)cc1	3
O=C(CCCN1C(=O)c2ccccc2C1=O)N1CCCCC1	10
Cc1ccc(NC(=S)NCCC2=CCCCC2)cc1	20
CNc1nc(N)c([N+](=O)[O-])c(NCc2ccccc2)n1	-11
S=C(Nc1ccccc1)N(Cc1ccccc1)Cc1ccncc1	12
CC(=O)/C(N=Nc1ccc(SC(F)F)cc1)=C(\C)O	2
COc1ccccc1OCC(=O)OC/C(O)=C(\C#N)c1nc2ccccc2[nH]1	16
COc1cc(OC)c(C(=O)NCC2CCCO2)cc1OC (centres undefined)	8
Cn1c(SCc2ccccc2)nc2ccsc2c1=O	18
COc1ccc(NC(=O)Nc2ccc3nonc3c2)cc1	31
COCCn1c(C)cc(C(=O)COC(=O)c2ccc3c(c2)NC(=O)CS3)c1C	16
COC(=O)Cc1ccc2oc(-c3cccnc3)nc2c1	14
CCOc1cc(NC(=S)NCCCN(C)C)c(OCC)cc1NC(=O)C1CC1	22
CCN(CC)CCNc1ccc2nnc(CCNS(=O)(=O)c3ccc(C)cc3)n2n1	12
COc1cc(C#N)c(NC(=O)CN2CCC(C(N)=O)CC2)cc1OC	11
Cc1ccc(NC(=O)CSc2ncnc3ccccc23)cc1S(=O)(=O)N1CCCCCC1	17
CCN(CC)c1ccc([N+](=O)[O-])cc1C(=O)O	8
CCOC(=O)c1ccc(NC(=O)C2CC(=O)N=C(N)S2)cc1 (centres undefined)	-6
CCOc1ccc(Nc2nc(N)nc(CSC(=S)N3CCOCC3)n2)cc1	0
CCCOc1ccc([N+](=O)[O-])c(N)c1	11
O=C1CCCC/C1=C\Nc1ccc(S(=O)(=O)Nc2cnc3ccccc3n2)cc1	16
COc1ccc(/C=N/OCC(=O)NCc2cccs2)c(OC)c1	17
Cc1ccc(O)c(C(=O)c2cc(C#N)c3nc4ccccc4n3c2)c1	13
O=C(O)CNC(=O)/C(=C/c1ccco1)NC(=O)/C=C/c1ccccc1	15
CC(=O)C1=C(Nc2ccccc2)CC(C)(O)C(C(C)=O)C1c1ccccc1 (centres undefined)	13
Cc1cc(C)cc(N(C(=O)c2ccc(Br)o2)C2C=CS(=O)(=O)C2)c1 (centres undefined)	12
COc1ccc(-c2ncccc2OC(=O)C23CC4CC(CC(C4)C2)C3)cc1OC	15
COC(=O)c1c(NC(=O)c2cccc([N+](=O)[O-])c2)sc(C(N)=O)c1C	3
O=C(COc1ncnc2ccccc12)Nc1cc([N+](=O)[O-])ccc1F	20
Cc1ccc(Nc2nnc(SCC(=O)Nc3ncc(S(=O)(=O)c4ccc([N+](=O)[O-])cc4)s3)s2)cc1	13
CCOC(=O)Cc1csc(SCC(=O)NC2CCCC(C)C2C)n1 (centres undefined)	20
CN(C)c1ccc(/C=N/NC(=O)C2COc3ccccc3O2)o1 (centres undefined)	13
COc1ccc(C)cc1NC(=S)NN1CCN(C)CC1	7
O=C(N/N=C/c1c(Cl)nc2ccccn2c1=O)c1cccnc1	13
Cc1cccc(-n2nc3c(c2NC(=O)c2ccco2)CS(=O)C3)c1C (centres undefined)	0
N#CCCN(C(=O)COC(=O)c1ccc(CNS(=O)(=O)c2ccc(F)c(Cl)c2)cc1)c1ccc(F)cc1	-11
O=C(Cc1ccc(Cl)cc1)NC1CC1	7
NC1=NC(c2ccc(Cl)cc2)C(C(=O)c2ccccc2)N1 (centres undefined)	26
COc1ccc(-n2cc(C(=O)Nc3cc([N+](=O)[O-])ccc3OC)c3ccccc3c2=O)cc1	8
Nc1cc(-c2ccc(Br)cc2)nn1Cc1ccccc1	-1
O=C(NCc1cccc(Br)c1)C1CC(c2ccccc2C(F)(F)F)=NO1 (centres undefined)	11

# Remaining list, next part:
Structure	Calb biofilm kill
Cc1ccccc1N1CC(C(=O)Nc2nnc(SCC(=O)Nc3nccs3)s2)CC1=O (centres undefined)	17
COc1ccc2nc(SCC(=O)Nc3ccc(S(=O)(=O)Nc4onc(C)c4C)cc3)[nH]c2c1	11
S=c1[nH]nc([C@@H]2C[C@H]2c2ccccc2)n1-c1ccccc1Cl	13
FC(F)(F)Sc1ccc(NC(=S)NCc2ccccc2)cc1	28
Cc1cc(=O)[nH]c(N/N=C/c2ccc(Cl)c([N+](=O)[O-])c2)n1	24
O=C1CC(C(=O)Nc2ccccc2)S/C(=N\NC(=O)c2ccccc2Cl)N1 (centres undefined)	16
O=C(c1cc(Cl)cc(Cl)c1)N1CCN(c2cc(C(F)(F)F)nc3ccccc23)CC1	6
CC(=O)c1c(C)[nH]c(C(=O)Nc2ccc(C)c(S(=O)(=O)Nc3ccc(C)cc3C)c2)c1C	16
N#Cc1c(SCC(=O)O)nc(N2CCOCC2)c2c1CCCC2	5
COc1ccccc1N/N=C1\COC(C)(C)CC1=O	16
CC(=O)NC(Cc1ccccc1C)C(=O)NC1CCN(C(=O)c2ccc(C)cc2)CC1 (centres undefined)	18
CC1=NN(c2ccccc2)C(=O)/C1=C\c1cn(C)c2ccccc12	24
CCCCCn1ccc(=O)c2c(C(F)(F)F)nccc21	15
CC(=O)c1c(C)[nH]c(C(=O)OCC(=O)Nc2ccc(Cl)cc2[N+](=O)[O-])c1C	18
COc1cccc(C(=O)/C=C/Nc2ccc(S(=O)(=O)Nc3ccc(C(C)=O)cc3)cc2)c1	8
COc1ccc2[nH]c(=O)c(CNc3ccccc3C)cc2c1	0
CCCCN=C1NN=C(c2cccc([N+](=O)[O-])c2)CS1	16
CCc1cc2c(SCC(=O)NC3CCS(=O)(=O)C3)ncnc2s1 (centres undefined)	-1
CC(C)CNC(=O)c1cccc(NC(=O)CSc2ccccc2)c1	13
CC(=O)c1cc(C(=O)N2CCCC(CCC(=O)N(C)CCc3ccccn3)C2)cs1 (centres undefined)	10
CCn1cc(-c2cc(C(=O)O)on2)c(C)n1	10
Cc1ccc(C(NC(=O)N2CC(C)OC(C)C2)C(Cl)Cl)cc1F (centres undefined)	12
O=C(Nc1nnc(-c2ccc(F)cc2)o1)c1ccco1	10
O=C(Nc1ccc(N2CCOCC2)cc1)C1CC(O)CN1S(=O)(=O)c1ccc(Cl)cc1 (centres undefined)	9
Cc1ccccc1C(=O)NNC(=S)NC(=O)c1cccnc1	21

# Laid out differently: three of the compounds above.
Cc1ccccc1N1CC(C(=O)Nc2nnc(SCC(=O)Nc3nccs3)s2)CC1=O (centres undefined)
  Calb biofilm kill: 17

COc1ccc2nc(SCC(=O)Nc3ccc(S(=O)(=O)Nc4onc(C)c4C)cc3)[nH]c2c1
  Calb biofilm kill: 11

S=c1[nH]nc([C@@H]2C[C@H]2c2ccccc2)n1-c1ccccc1Cl
  Calb biofilm kill: 13

# Continuation.
Structure	Calb biofilm kill
CCOc1cc(C(F)(F)F)cnc1/C(N)=N/O	24
CCOc1ccc(N2CC(C(=O)Nc3cccc(S(=O)(=O)NC4=NCCC4)c3)CC2=O)cc1 (centres undefined)	14
COc1cc(C(=O)NCc2ccc(F)cc2)cc(Cl)c1OC	1
O=C(CCCCCn1c(=S)[nH]c2ccc(N3CCOCC3)cc2c1=O)NCc1ccc2c(c1)OCO2	6
CC[C@H](C)[C@H](NC(N)=O)C(=O)Nc1ccc2c(c1)OCO2	-2
Cc1cc(/C=C2\C(=O)NN(c3ccccc3)C2=O)c(C)n1-c1ccccc1O	2
C[C@@H]1NC(=O)c2cc([N+](=O)[O-])cc(I)c2OCC[C@@H](C(=O)NC(CC(=O)O)C(N)=O)NC(=O)[C@H](CC(N)=O)NC1=O (some centres undefined)	8
C/C=C/C(=O)OCC(=O)Nc1cc([N+](=O)[O-])ccc1Cl	16
O=C(O)CCCCCNS(=O)(=O)c1cccc2c1C(=O)c1ccccc1C2=O	16
Cc1cc(/C=C2/NC(=O)N(c3ccccc3)C2=O)c(C)n1-c1cccnc1	11
CC(C)(C)SCCNC(=O)CN(c1ccccc1)S(=O)(=O)c1ccccc1	3
COc1ccc(CCn2c(C(C)C)nc3oc4ccccc4c(=O)c3c2=O)cc1	20
CC(C)NC(=S)Nc1ccc2nc3n(c(=O)c2c1)CCCCC3	8
CC(C)CCNC(=O)CSc1nc2ccccc2s1	9
Cc1ccc(/C=N/NC(=O)c2n[nH]c3c2CCCC3)cc1	21
COc1cc(C(=O)NCC(=O)N/N=C/c2ccccn2)cc(OC)c1OC	9
COc1ccc(C(=O)NC(=S)NNC(=O)c2cnccn2)cc1OC	15
Cc1ccc(S(=O)(=O)N2CCCCC2)cc1NC(=O)Cn1ccsc1=N	13
CC1(C)CC(=O)c2ccc(O)cc2O1	8
CC(C)OC(=O)/C(=C\c1cccc2ccccc12)NC(=O)c1ccccc1	6
Cc1ccccc1NS(=O)(=O)CCCCC(Cl)(Cl)Cl	1
Cc1ccc2cc3c(nc2c1)N(c1ccccc1)CC3	21
Cc1cccc(-n2cc(CN3CCN(C(=O)c4ncn[nH]4)CC3)c(-c3cccc(F)c3)n2)c1	2
COc1ccc(NS(=O)(=O)c2ccc(NC(=S)NC(=O)c3ccc(F)cc3)cc2)nn1	20
COc1ccccc1NC(=O)N1CCCC1C(=O)Nc1ccc2c(c1)OCCO2 (centres undefined)	17
CC(C)c1cc(CN2CCN(C3CCCC3)C(CCO)C2)[nH]n1 (centres undefined)	13
Cc1ccc(S(N)(=O)=O)c(C)c1N1CCCC1=O	15
C=C(C)Cn1cnc2c(oc3nc4c(cc32)CCCC4)c1=O	7
Cc1ccnc(N2CCC(C(=O)NNC(=O)COc3cccc4ccccc34)CC2)n1	3
O=C(CC1C(=O)NCCN1Cc1ccc(-c2ccccc2)cc1)NCCc1ccccn1 (centres undefined)	18
COC(=O)CCN(C(=O)c1ccc(N2CCCC2)c([N+](=O)[O-])c1)c1ccccn1	15
O=C(N/N=C/C=C\c1cccc([N+](=O)[O-])c1)c1cccnc1	15
CNC(=S)N/N=C/c1ccccc1OCC(=O)O	13
O=C(CN(CCc1ccccc1)C(=O)c1csnn1)NC1CCCC1	20
Brc1ccc(CNc2nc3ccccc3n2CCN2CCCCC2)cc1	23
COc1ccccc1NC(=S)N1CCC(c2nc3ccccc3o2)CC1	11
CN(C)S(=O)(=O)c1cccc(NC(=O)CCNC(=O)c2ccccc2Cl)c1	15
Cc1cc(-c2csc(NCc3ccccc3)n2)c(C)n1C	4
Cc1cc(C(=O)NNC(=S)NC(C)c2ccccc2)cs1 (centres undefined)	8
COCCn1c(SCC(=O)Nc2ccc(C)cc2)nc2c(oc3ccccc32)c1=O	4
CCOC(=O)c1ccc(NC(=O)CC2C(=O)OCCN2CC)cc1 (centres undefined)	-2
Cc1onc(-c2ccccc2)c1CNC(=O)Nc1cccc(Cl)c1	15
Cc1cnc(NC(=O)c2nn(C)cc2[N+](=O)[O-])s1	-1
Nc1c(C(=O)N2CCCC2)sc2nc(-c3ccccc3)ccc12	20
C[C@@H](C[C@@H](O)[C@H](O)C(C)(C)O)[C@@H]1CC[C@]2(C)C3=CC[C@H]4C(C)(C)C(=O)CC[C@]4(C)[C@H]3CC[C@@]12C	12
COc1cc(C(C)=O)ccc1Oc1ncnc2c1cnn2-c1ccccc1	8
Cc1ccccc1C(=O)Nc1cccc(-c2ccc3nncn3n2)c1	9
Cc1cccc(NC(=O)/C(C#N)=C\c2cn(CC(=O)O)c3ccccc23)c1	7
CC(C)Cn1c(C(C)C)nc([N+](=O)[O-])c1Sc1ccc(Cl)cn1	12
Cn1cc(S(=O)(=O)CC(=O)Nc2ccc3c(c2)OCCO3)c2ccccc21	7

# The list continues.
Structure	Calb biofilm kill
Cc1ccc(N2C(=O)C3NN=C(C(=O)OCc4ccccc4)C3C2=O)c(C)c1 (centres undefined)	4
COc1ccc(-n2nc3c(c2NC(=O)c2ccc(N4C(=O)CCC4=O)cc2)CSC3)cc1	14
COc1ccc(C)cc1NC(=O)CNc1ccccc1CN(C)C1CCCCC1	11
CC(C)Nc1nnc(SCC(=O)NCc2ccc3c(c2)OCO3)s1	15
CC(C)NC(=O)COC(=O)Cn1[nH]c(=O)c2ccccc2c1=O	2
S=c1[nH]c(-c2ccccc2)cs1	15
CC(C)CCN1CCN(Cc2ccc(C(F)(F)F)cc2)CC1CCO (centres undefined)	20
